Assay outcomes (PubChem)
HCMV NEC inh = inhibitors of HCMV UL50-UL53 interaction, biochemical, HTRF; inhibition, % (test concentration not listed); HCMV UL50-UL53 nuclear egress complex (human cytomegalovirus); AID 1918969, 2023; normalized percent inhibition; 0.15% of 190,000 active;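 active means both replicates at 50% or more, plus weaker picks with an unusually low signal ratio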;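 further: stock transfer was 100 nL into about 20 µL; 0% = negative control wells and 100% = wells with untagged competitor protein; inactives centre near -12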
GIV-Gai inh = inhibitors of GIV peptide binding to Galpha-i3, primary screen, biochemical, fluorescence polarization, FITC-GIV GBA peptide, rat Galphai3. Guanine nucleotide-binding protein G(i) subunit alpha-3 (Rattus norvegicus), P08753. 90 min; active compounds read low; scaled: aluminum fluoride 0%, vehicle 100%. percent of control (FP), % (no concentration beside the values). 0.42% of 210,000 active. AID 1224905, 2016;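 active means replicate mean at 85% of control or lower, very high polarization wells dropped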;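 further: wells of about 15 µL received 100 nL stock; the first replicate is given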
Target sequence (P08753 whole entry, looked up): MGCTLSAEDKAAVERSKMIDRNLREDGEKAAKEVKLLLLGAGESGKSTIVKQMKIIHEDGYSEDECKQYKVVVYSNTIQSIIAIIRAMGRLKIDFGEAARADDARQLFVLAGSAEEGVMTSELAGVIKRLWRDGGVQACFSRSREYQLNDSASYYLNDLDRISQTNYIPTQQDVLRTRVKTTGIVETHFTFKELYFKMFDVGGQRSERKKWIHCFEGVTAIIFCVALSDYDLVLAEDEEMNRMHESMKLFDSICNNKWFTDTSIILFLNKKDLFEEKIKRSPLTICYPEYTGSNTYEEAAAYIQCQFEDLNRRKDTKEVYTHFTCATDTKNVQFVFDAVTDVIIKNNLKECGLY
Sa growth inh = S. aureus growth inhibition at 42 and 30 °C, primary screen, LtaS inhibitor project, RN4220, two temperatures | OD600, 20 h, 42 °C; active compounds read low | relative growth, % (test concentration not listed) | 0.53% of 170,000 active;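 active means growth at 42 °C up to 50% and 20 or more points under that at 30 °C, or under 10% at both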;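 further: 300 nL library stock went into each well; scaled to the means of positive and negative controls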
Sa growth inh second temp = recorded beside Sa growth inh, whose call it bears; relative growth, %; measured here: growth at 30 °C;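 optical density after 20 h as mean of two plates; 100% = untreated growth and lower means inhibition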
An asterisk follows results filed as active; x = no result given; & = joins results of further samples.

Every second line gives: HCMV NEC inh	GIV-Gai inh	Sa growth inh	Sa growth inh second temp
COc1ccc(-c2[nH]ncc2C(=O)NCCc2ccc(OC)c(OC)c2)cc1
    -23	112	x	x
O=C(NCCC(=O)N1CCN(C/C=C/c2ccccc2)CC1)c1ccc(Cl)cc1
    -17	x	99	90
Cc1cc(-n2c(C)cc(CNC3CCN(Cc4ccccc4)C3)c2C)no1 (stereo unspecified)
    -22	x	79	85
O=C(NCc1cccs1)c1cc(=O)[nH]c2ccc(S(=O)(=O)N3CCCC3)cc12
    26	109	99	98
CC(=O)Oc1ccc(C2NC(C(=O)O)CS2)cc1 (stereo unspecified)
    -6	101	96	48
CCNc1nc2[nH]c(=O)cc(O)c2s1
    -3	102	92	88
COc1ccc(NC(=O)C2CCN(S(=O)(=O)c3ccc4[nH]c5c(c4c3)CCCCC5)CC2)cc1
    -21	111&104	92	101
S=c1nn[nH]n1CCc1ccc(Cl)cc1
    38	97	91	82
CC(C1CC1)N(CC(F)(F)F)C(=O)CSc1nnc(-c2ccccc2Cl)o1 (stereo unspecified)
    -6	x	117	85
O=c1c(Br)c(NCCCO)cnn1-c1ccccc1
    -4	104	101	99
O=C(COc1ccccc1)Nc1ccc(S(=O)(=O)N(Cc2ccccc2)c2ccccc2)cc1
    -4	97	107	87
CN(C)C(=O)n1nnc2ccccc21
    -11	102	77	68
O=C(Cn1nnc(-c2cccc(Cl)c2)n1)NCC(=O)Nc1ccc(F)cc1
    -25	x	71	85
Clc1ccc(-c2ccc(CNCCCn3ccnc3)o2)cc1
    -35	109	x	x
COc1cc(OC)cc(C(=O)Nc2nnc(SCc3cc(=O)n4oc(C)cc4n3)s2)c1
    -12	105	x	x
O=c1oc2ccccc2cc1-c1ccc2c(c1)OCO2
    -1	x	93	92
Cc1cc(C(=O)NC2Cc3ccccc3C2)c(C)o1
    -4	110	107	88
O=C(Nc1ccc2c(c1)OCO2)c1nnc(C(=O)N2CCCC(C(=O)NC3CCCC3)C2)s1 (stereo unspecified)
    -20	103	x	x
COc1ccc(CNC(=O)Cn2c(SCC(=O)Nc3ccc(OC)cc3)nc3ccccc32)cc1
    x	100	77	89
CCN1CCCC1CNC(=O)c1csc2c1CCCCC2 (stereo unspecified)
    x	108	113	89
O=C1CCc2cc(S(=O)(=O)NC(Cc3ccccc3)C(=O)N3CCN(c4ccccc4)CC3)ccc2N1 (stereo unspecified)
    -11	108	102	98
COc1cccc(NC(=O)c2cc(-c3ccccc3)nc3ccccc23)c1
    -8	105	x	x
CCCn1c2ccc(C)cc2c2nnc(SCCN3CCCCC3)nc21
    -38	111	80	97
O=S(=O)(Nc1cccnc1)c1ccc(-n2cccn2)cc1
    -13	103	x	x
c1ccc(CCc2nc(-c3ccccc3)no2)cc1
    -16	108	93	102
CCc1ccc2nc(N(CCN(C)C)C(=O)c3ccc(N(C)C)cc3)sc2c1
    x	107	120	93
Cc1ccc2c(c1)c(=O)c1ccccc1n2CC(=O)N1CCN(c2ccc([N+](=O)[O-])cc2)CC1
    -17	108	x	x
COc1ccc(NC(=O)COc2ccccc2Cl)cc1NC(=O)c1ccco1
    -8	117	117	95
Nc1ncnc2nc(SCc3ccc4nsnc4c3)[nH]c12
    -24	99	x	x
CN(Cc1ccc(-c2ccc(Br)cc2)o1)C(=O)Cc1ccsc1
    -35	x	56	22

16 neighbouring entries from above:
Every second line gives: HCMV NEC inh	GIV-Gai inh	Sa growth inh	Sa growth inh second temp
CN(C)C(=O)n1nnc2ccccc21
    -11	102	77	68
O=C(Cn1nnc(-c2cccc(Cl)c2)n1)NCC(=O)Nc1ccc(F)cc1
    -25	x	71	85
Clc1ccc(-c2ccc(CNCCCn3ccnc3)o2)cc1
    -35	109	x	x
COc1cc(OC)cc(C(=O)Nc2nnc(SCc3cc(=O)n4oc(C)cc4n3)s2)c1
    -12	105	x	x
O=c1oc2ccccc2cc1-c1ccc2c(c1)OCO2
    -1	x	93	92
Cc1cc(C(=O)NC2Cc3ccccc3C2)c(C)o1
    -4	110	107	88
O=C(Nc1ccc2c(c1)OCO2)c1nnc(C(=O)N2CCCC(C(=O)NC3CCCC3)C2)s1 (stereo unspecified)
    -20	103	x	x
COc1ccc(CNC(=O)Cn2c(SCC(=O)Nc3ccc(OC)cc3)nc3ccccc32)cc1
    x	100	77	89
CCN1CCCC1CNC(=O)c1csc2c1CCCCC2 (stereo unspecified)
    x	108	113	89
O=C1CCc2cc(S(=O)(=O)NC(Cc3ccccc3)C(=O)N3CCN(c4ccccc4)CC3)ccc2N1 (stereo unspecified)
    -11	108	102	98
COc1cccc(NC(=O)c2cc(-c3ccccc3)nc3ccccc23)c1
    -8	105	x	x
CCCn1c2ccc(C)cc2c2nnc(SCCN3CCCCC3)nc21
    -38	111	80	97
O=S(=O)(Nc1cccnc1)c1ccc(-n2cccn2)cc1
    -13	103	x	x
c1ccc(CCc2nc(-c3ccccc3)no2)cc1
    -16	108	93	102
CCc1ccc2nc(N(CCN(C)C)C(=O)c3ccc(N(C)C)cc3)sc2c1
    x	107	120	93
Cc1ccc2c(c1)c(=O)c1ccccc1n2CC(=O)N1CCN(c2ccc([N+](=O)[O-])cc2)CC1
    -17	108	x	x

(listing goes on)
Every second line gives: HCMV NEC inh	GIV-Gai inh	Sa growth inh	Sa growth inh second temp
NC(=O)N1CC(O)CC1C(=O)Nc1ccc(Cl)c(Cl)c1 (stereo unspecified)
    -10	x	94	86
Cn1cc(S(=O)(=O)c2ccc(Cl)cc2)c(=O)c2cc(F)c(N3CCCC3)cc21
    x	104	116	99
C=C(C)Cn1c(CCNC(=O)COc2ccccc2)nc2ccccc21
    -1	104	x	x
CC(=O)Nc1cc2c(cc1C(=O)C(C)C)OCCO2
    -7	103	88	88
CCOc1ccc(CCN2C(=O)Cn3cccc3C2C(=O)NC2CCC(C)CC2)cc1 (stereo unspecified)
    -31	103	x	x
CC(=N\N1CCOCC1)/C(C)=N/N1CCOCC1
    -4	x	73	93
COc1nnc(-c2ccc(N3CCCCC3)c(NC(=O)c3ccc(C)cc3)c2)c2ccccc12
    -23	102	96	89
CCN1CCc2c(sc(NC(=O)c3ccc(S(=O)(=O)N(CCOC)CCOC)cc3)c2C(N)=O)C1
    x	109	122	91
COc1ccc(N(CC(=O)N2CCN(c3ccccc3F)CC2)S(=O)(=O)c2c(C)n[nH]c2C)cc1
    -9	108	72	89
Nc1ccc2nc(-c3ccccc3)oc2c1
    -22	107	86	83
O=C(Nc1nc(-c2cccs2)cs1)c1ccc(Cl)cc1
    12	x	103	94
Cc1ccc(S(=O)(=O)NCCCn2ccnc2)cc1
    -14	100	88	88
CCSc1nnc2c(n1)OC(c1cccc(OC)c1)Nc1ccccc1-2 (stereo unspecified)
    -10	101	x	x
COc1cc(C2CC(=O)Nc3nc(N)[nH]c(=O)c32)ccc1O (stereo unspecified)
    24	107	x	x
CN(C)c1oc(-c2ccc(Cl)cc2)nc1C#N
    x	103	112	76
O=C(Nc1ccccc1O)c1csc2c1CCCC2
    1	107	116	96
O=C(O)C(O)c1cccc(Cl)c1 (stereo unspecified)
    9	111	98	99
CC(=O)N1N=C(c2ccc(C(C)(C)C)cc2)OC1(C)C
    x	101	92	87
CN(C)c1nc(NCCNS(=O)(=O)c2ccc(Cl)cc2)nc(N(C)C)n1
    -27	101	108	88
Fc1ccc(C(c2nnnn2Cc2ccccc2)N2CCSCC2)cc1 (stereo unspecified)
    -5	101	95	98
CCc1cc2c(=O)n(CC)c(SCC3CCCCO3)nc2s1 (stereo unspecified)
    -12	x	82	94
CC1=C(C(=O)OCC2CCCO2)C(c2ccc(OCc3ccccc3)cc2)NC(=O)N1 (stereo unspecified)
    -10	102	x	x
CCSc1nccn2nc(-c3ccc(Cl)cc3)cc12
    8	100	x	x
CC1=C(C(=O)Nc2ccccc2)C(c2ccccn2)n2nc(SCc3ccccc3Cl)nc2N1 (stereo unspecified)
    -10	101	102	93
Cc1ccc(CNC(=O)c2cccnc2Sc2cccc(C(F)(F)F)c2)cc1
    20	98	83	90
COc1ccc(C=NCCc2cccs2)c(O)c1
    -1	105	97	93
O=C(CSc1ncnc2c1nnn2Cc1ccc(F)cc1)c1ccccc1
    x	99	116	91
CC(=O)Nc1ccccc1-c1nnc(SC(C)C(=O)Nc2cccc(Cl)c2C)[nH]c1=O (stereo unspecified)
    -17	99	x	x
Cc1c(C(=O)NCC(c2cccs2)N2CCCC2)oc2ccc(Cl)cc12 (stereo unspecified)
    -20	98	x	x
Cc1ccc(-c2nn3c(C)nnc3c3ccccc23)cc1S(=O)(=O)NCC(C)O (stereo unspecified)
    x	107	132	82
Cn1c(CNc2ccc(C(=O)O)cc2)nc2ccccc21
    0	103	106	91
CCCOC(=O)c1ccc(Nc2c(C(=O)OCC)cnc3c(C)cc(Cl)cc23)cc1
    21	97	104	103
N#Cc1ccc(COc2ncnc3ccccc23)cc1
    -2	x	100	92
CC(C)(C)NCc1nc(-c2ccccc2)no1
    x	104	91	88
CCOC(=O)c1cc(-c2ccccc2)nn1-c1ccccc1
    -23	x	84	84
CCN(CC)c1ccc(/C=C2\C(=O)NC(=S)N(c3ccc(F)cc3)C2=O)c(OC)c1
    -11	107	x	x
CCN(CC)CCNC(=O)c1c(C)oc2ncnc(N3CCOCC3)c12
    x	107	103	103
CCOc1ccc(NC(=O)Cn2c(C)cc(C)c(S(=O)(=O)c3ccc(Br)cc3)c2=O)cc1
    -27	102	x	x
Cc1ccc(C)c(Cn2cnc3c(cnn3CCO)c2=O)c1
    -2	103	109	100
COc1ccc2c(Sc3ccc(Cl)cc3)c(C(=O)N3CCC(C)CC3)[nH]c2c1
    3	98	99	53
O=C(CCNS(=O)(=O)c1cccc2nsnc12)Nc1ccc(F)cc1
    -14	99	114	84
CCc1c(CN2CCC(Cc3ccccc3)CC2)csc1C
    86	101	x	x
Cc1occc1-c1nnc(SCC(=O)NCCC2=CCCCC2)o1
    9	106	x	x
CC(=O)N1CCc2c(sc3c2c(=O)n(-c2ccccc2C)c(=O)n3Cc2cccc(F)c2)C1
    -9	103	98	80
CCOC(=O)c1cnc(SCC(=O)N2CCCCC2)nc1N
    -23	105	108	89
Cc1ccc(-n2c(=O)c3cccnc3n2CC(=O)Nc2cccc(C)c2C)cc1
    x	103	100	100
O=C1c2ccccc2C(=O)N1/N=C/c1ccc(-c2ccccc2Br)o1
    -7	x	99	96
O=C(CCC(=O)N1CCc2cc(S(=O)(=O)N3CCc4ccccc43)ccc21)N1CCOCC1
    -26	100	x	x
CC(=O)OC(OC(C)=O)c1ccc(S(C)(=O)=O)cc1
    -10	102	90	82
O=c1[nH]c2ccccc2n1C1CCN(S(=O)(=O)c2ccc(-n3cnnn3)cc2)CC1
    4	103	x	x
O=c1[nH]cnc2nc(-c3ccccc3)c(-c3ccccc3)nc12
    x	105	100	87
O=C1Nc2ccccc2S/C1=C\C(=O)N1CCc2ccccc2C1
    -27	103	113	86
CCOC(=O)c1cnn2c(-c3ccc(C(C)C)cc3)ccnc12
    -7	113	x	x
COc1ccc2cccc3c2c1C=CC3=O
    -75	-89*	108	94
FC(F)(F)c1ccccc1-n1ccnc1
    -17&-3&5	103	x	x
CC1C/C(=N\NC(=S)NC(C)C)CC(C)(C)C1 (stereo unspecified)
    -32	x	111	93
CSCCC(=O)Nc1nc2ccccc2[nH]1
    -14	x	113	88
O=C(CC1(O)C(=O)N(Cc2ccccc2)c2ccc(Br)cc21)c1ccccc1 (stereo unspecified)
    -6	103	106	104

A different layout for part of the listing above:
Molecule	HCMV NEC inh	GIV-Gai inh	Sa growth inh	Sa growth inh second temp
CSCCC(=O)Nc1nc2ccccc2[nH]1	-14	x	113	88
O=C1Nc2ccccc2S/C1=C\C(=O)N1CCc2ccccc2C1	-27	103	113	86
